RecA intein inh – Mtb RecA intein splicing inhibition; P9WHJ3; cell-free RecA intein splicing, fluorescence; inhibition, %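 (about 9 µM by stock and volumes)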; 290,000 tested, 0.75% active; AID 2221; in the data active means inhibition above about 30%;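 further: 0% = vehicle wells and 100% = reference inhibitor control wells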
Target sequence (P9WHJ3 whole entry, looked up): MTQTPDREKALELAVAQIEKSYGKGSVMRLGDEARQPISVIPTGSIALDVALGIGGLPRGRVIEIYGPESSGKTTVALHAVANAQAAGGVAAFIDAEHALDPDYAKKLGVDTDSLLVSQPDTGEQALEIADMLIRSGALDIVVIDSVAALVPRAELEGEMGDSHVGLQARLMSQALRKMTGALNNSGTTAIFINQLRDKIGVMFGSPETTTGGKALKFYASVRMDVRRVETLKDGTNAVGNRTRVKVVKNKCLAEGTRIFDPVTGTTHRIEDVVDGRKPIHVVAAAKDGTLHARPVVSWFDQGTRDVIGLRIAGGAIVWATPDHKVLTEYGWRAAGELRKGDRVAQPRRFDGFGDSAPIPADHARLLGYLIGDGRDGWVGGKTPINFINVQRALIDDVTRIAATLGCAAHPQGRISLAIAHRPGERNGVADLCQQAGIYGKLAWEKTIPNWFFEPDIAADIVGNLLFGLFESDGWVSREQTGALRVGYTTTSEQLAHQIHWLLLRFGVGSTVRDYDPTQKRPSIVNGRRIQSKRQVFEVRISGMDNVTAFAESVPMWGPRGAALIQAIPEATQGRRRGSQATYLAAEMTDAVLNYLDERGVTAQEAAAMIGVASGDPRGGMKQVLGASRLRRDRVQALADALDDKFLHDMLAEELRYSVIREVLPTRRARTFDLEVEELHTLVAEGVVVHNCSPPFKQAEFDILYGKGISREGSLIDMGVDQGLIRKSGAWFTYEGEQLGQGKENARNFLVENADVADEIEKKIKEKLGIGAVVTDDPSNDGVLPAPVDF
Mtb bLac sens – beta-lactam sensitization of Mtb H37Rv. inhibition, % at 25 µM. 330,000 tested, 0.27% active. AID 434955. M. tuberculosis H37Rv growth with meropenem, percent inhibition; hits of this screen are not shown here;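 active means about 74% or more and at least 40 points above the plate without the antibiotic, then above 30% in a dose series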;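 further: growth measured after seven days incubation then overnight dye step; 0% = bacteria only wells and 100% = bacteria with antibiotic; twin plates without the antibiotic show which effects depend on it; some results filed as inactive read as strong as hits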
Arbovirus anti – antivirals against arbovirus infection | arbovirus infection cell-based antiviral screen | inhibition, % at 10 µM | 200,000 tested, 0.37% active | AID 1251;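 active means inhibition from about 30%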;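 further: bluetongue infection of BSR cells; cell survival read as ATP light after 72 h; 0% = infected wells without compound and 100% = uninfected wells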
Mtb H37Rv – M. tuberculosis H37Rv growth inhibitors, H37Rv strain (AID 1626). inhibition, % at 10 µM, or IC50 in µM where a hit was titrated. M. tuberculosis H37Rv growth inhibition; higher % means a stronger effect. 220,000 tested, 0.95% active;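 active means confirmed in a dose series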;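 further: bacteria incubated seven days before Alamar blue readout; 0% = bacteria only wells and 100% = bacteria with antibiotic wells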
YopH inh – YopH (Yersinia) phosphatase inhibition | fluorescence Ex485/Em525 | inhibition, %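 (about 10 µM by stock and volumes)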 | 140,000 tested, 0.16% active;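 active means inhibition of 50% or more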;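 further: controls were vehicle for no effect and minimum signal wells for full effect; inactives centre near -20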
Arbovirus anti repeat – recorded beside Arbovirus anti, whose call it bears; inhibition, %; measured here: 10K subset replicate screen; many hits read low in the repeat;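 first of two repeat runs on a subset; 0% = infected and 100% = uninfected wells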
* = called active by the depositor; · = no result given.

SMILES | RecA intein inh | Mtb bLac sens | Arbovirus anti | Mtb H37Rv | YopH inh | others
O=C(CC1CS(=O)(=O)CC1CC(=O)Nc1ccc2c(c1)OCCO2)Nc1ccc2c(c1)OCCO2 (stereo unspecified) | -2.0 | 8 | -6 | 6% | ·
O=C(COc1ccc(Br)cc1Br)NC1CCS(=O)(=O)C1 (stereo unspecified) | 1.7 | -8 | · | · | ·
COc1ccc2[nH]c(=O)c(CN(C(=O)c3ccncc3)C(C)(C)C)cc2c1 | -2.3 | -10 | 6 | 6% | -18
Cc1ccc(C2=NN(C(=O)COc3ncnc4ccccc34)C(c3ccco3)C2)cc1 (stereo unspecified) | -1.2 | -1 | -4 | 7% | ·
CN(C(=O)c1nc(-c2ccccc2)n(-c2ccccc2)n1)C1CCS(=O)(=O)C1 (stereo unspecified) | -0.7 | -4 | · | · | ·
CC(C)(C)C(=O)Cn1c(=O)n(-c2ccc(F)cc2F)c(=O)c2sccc21 | 0.4 | -2 | -9 | -11% | ·
CCCc1ccc(Oc2cc(NN3CCCCC3)c([N+](=O)[O-])cc2[N+](=O)[O-])cc1 | -0.4 | -5 | · | · | ·
Nc1ccccc1Nc1cc(-c2ccccc2)nn1-c1cccc(Cl)c1 | 16 | 11 | 1 | 5% | -41
CCCC(=O)C1=C(O)C(C(=O)OC)C(C)(C)CC1=Nc1ccc(N)cc1 (stereo unspecified) | 0.8 | 6 | -2 | 17% | -8
COc1ccccc1CCNCc1cccc(C(F)(F)F)c1 | -0.7 | -4 | · | · | ·
Cc1ccc(NC(=O)CS(=O)CC(=O)N2CCN(C3CCCC3)CC2)cc1 (stereo unspecified) | 4.7 | 0 | · | · | ·
CC(C)[C@H](NC(=O)c1ccccc1)C(=O)OCc1nc2scc(-c3ccccc3)c2c(=O)[nH]1 | -7.7 | 6 | 6 | -2% | -18
COc1ccccc1Nc1nc(N)nc(CSc2nncn2C)n1 | 2.7 | -9 | 0 | -5% | -5
O=C(c1ccccc1)c1cccc(NC(=O)c2ccco2)c1 | 2.3 | -1 | 2 | 29% | -55 | Arbovirus anti repeat=-8
COCCN(C(=S)Nc1cccc(C)c1C)C(C)c1ccco1 (stereo unspecified) | 0.6 | 1 | 2 | 5% | ·
CC1=CC(=C2C(=O)NC(=S)NC2=O)C=C(C(F)(F)F)N1C | -0.3 | -9 | 3 | -2% | -1
O=C(c1ccco1)N1CCN(C(=S)NCc2ccc(F)cc2)CC1 | 0.0 | -4 | · | · | ·
CCOC(=O)c1sc(NC(=O)CCN2CCOCC2)c(C(=O)OCC)c1C | 2.2 | 13 | 6 | -2% | -35
Clc1ccc(COn2c(-c3ccc(Cl)cc3)nc3ccccc32)cc1 | 12 | 1 | -3 | -2% | -28
CC(=O)C1C(c2ccc(Br)cc2)c2c(noc2C)CC1(C)O (stereo unspecified) | · | -2 | · | 12% | ·
O=C1C2CCN(CC2)C1Cc1ccccc1O (stereo unspecified) | -2.4 | -11 | 1 | 3% | -22
CS(=O)(=O)Nn1cnc2ccccc2c1=O | 0.3 | 1 | -1 | 4% | 9
Fc1ccc(Oc2nnnn2-c2ccccc2)cc1 | -1.1 | -3 | 2 | 6% | ·
COc1ccc2nc(C)cc(N3CCOCC3)c2c1 | 1.2 | -4 | 3 | -3% | 4
CC1(CCc2ccccc2)NC(=O)N(CC(=O)Nc2ccc(S(N)(=O)=O)cc2)C1=O (stereo unspecified) | 3.8 | -2 | 0 | 7% | ·
OC(CNCc1ccncc1)c1ccccc1 (stereo unspecified) | 2.0 | -18 | · | · | ·
O=C(/C=C/c1ccccc1)NC1CCSC1=O (stereo unspecified) | 12 | -5 | -11 | -1% | -23
O=C(CSc1nc2cc(Cl)ccc2s1)c1ccco1 | 3.6 | 85 | -5 | 74% | -30 | Arbovirus anti repeat=5
FC(F)(F)c1cccc(CNC2c3ccccc3-c3ccccc32)c1 | 1.9 | 11 | · | · | ·
Cc1ccc2c(c1)cc(CN(Cc1cccnc1)C(=O)c1ccccc1)c1nnnn12 | 0.3 | 0 | 6 | 1% | ·
CCC(CC)C(=O)Nc1ccc(C(=O)Nc2cc(C)on2)cc1 | -0.2 | 4 | 3 | -3% | ·
O=C(NCc1ccc(F)cc1)c1c(O)c2cccc3c2n(c1=O)CCC3 | -1.9 | -4 | 0 | -4% | -39
CC1CCCCN1S(=O)(=O)c1cccc2cccnc12 (stereo unspecified) | · | 1 | 4 | -12% | -2 | Arbovirus anti repeat=5
COc1ccc2ccc(Oc3ncccn3)cc2c1 | -0.5 | -4 | -4 | · | -36
O=C(NCc1ccccc1F)C1CCCN(C(=O)NC2CCCCC2)C1 (stereo unspecified) | -0.6 | -1 | -5 | -4% | -2
Cc1nnc(SCCn2c(N(C)Cc3ccccc3)nc3c2c(=O)[nH]c(=O)n3C)s1 | -4.2 | 5 | -2 | -4% | -41 | Arbovirus anti repeat=5
Cc1cc(NC(=O)CCc2ccc(C)o2)no1 | -0.3 | -11 | 4 | 6% | 10
COc1ccc(/C=C/C(=O)NC(=S)N2CCN(c3ccccn3)CC2)cc1 | -1.1 | 4 | · | -5% | ·
Cc1onc(-c2c(F)cccc2Cl)c1C(=O)NCCO | 1.1 | -11 | 2 | 6% | ·
CN(C)c1ccc(O)c2c1CC1CC3[C@@H](N(C)C)C(=O)C(C(N)=O)=C(O)[C@]3(O)C(=O)C1=C2O (stereo partly specified) | -2.5 | 99 | 4 | 3.1µM* | -26
CCN1CCN(C(c2ccccc2)c2nnnn2Cc2ccc3c(c2)OCO3)CC1 (stereo unspecified) | 1.2 | 3 | 2 | -5% | ·
COCc1ccc(CN2CCCCC2C(=O)Nc2ccc(Oc3ccccc3)nc2)o1 (stereo unspecified) | 2.0 | -16 | · | · | ·
Cc1ccc(OCCSCc2nc3ccccc3[nH]2)cc1 | 2.4 | 1 | 19 | -4% | -42
O=C(c1cn(-c2ccccc2)nc1-c1cccc(Br)c1)N1CCOCC1 | 1.0 | 3 | 0 | 11% | ·
Cc1c(Cl)cccc1NC(=O)C1COc2ccccc2O1 (stereo unspecified) | 9.6 | -2 | · | · | ·
CSc1ccccc1NC(=O)Cn1ccsc1=N | -0.5 | -2 | 8 | -6% | ·
O=C(O)c1c(-n2cccc2)sc2c1CCCC2 | -1.0 | 11 | 17 | 7% | ·
CCOc1cc(C(=O)O/N=C(\N)c2ccc([N+](=O)[O-])cc2)cc(OCC)c1OCC | 1.4 | 7 | -12 | -1% | -15
Cc1cc(C)cc(N2CCCn3c2nc2c3c(=O)n(CC(=O)OCc3ccccc3)c(=O)n2C)c1 | 0.4 | 4 | 9 | 5% | -41
Cc1cc(C(=O)N/N=C2\CC(=O)CC(C)(C)C2)c(C)n1-c1ccccc1 | · | -5 | 10 | 9% | -3
C=CCc1cccc2cc(C(=O)N(C)C)c(=O)oc12 | -1.1 | 17 | 8 | -16% | 2 | Arbovirus anti repeat=0
COc1ccc(CCNC(=O)c2c(C)nn(-c3ccccc3)c2Cl)cc1OC | -1.8 | -2 | · | · | ·
Cc1ccc(C2Nc3ccccc3C(=O)N2Cc2ccco2)cc1 (stereo unspecified) | 0.6 | -2 | -18 | 11% | -9
O=[N+]([O-])c1cc(S(=O)(=O)NC2=NCCCCC2)ccc1Cl | -5.3 | 6 | 6 | -6% | ·
O=C(c1ccco1)N1CCN(S(=O)(=O)c2ccc3c(c2)OCCO3)CC1 | -1.4 | -2 | 14 | 1% | -18
O=[N+]([O-])c1ccc(/C=N/Nc2ncc(Br)cn2)cc1 | -2.5 | 8 | · | · | ·
C=CCSC1=C(C#N)C(c2cc(Br)c(O)c(OC)c2)CC(=O)N1 (stereo unspecified) | 0.5 | 4 | -5 | 4% | -17
CCOC(=O)C1=C(Cc2ccc(Cl)cc2)C(=O)c2ccccc2C1=O | 27 | 41 | -30 | 0% | 6
O=C(Cc1c[nH]c2ccccc12)NCc1cccs1 | 2.1 | 3 | -9 | 5% | -6
Cc1ccccc1NS(=O)(=O)c1ccc(C)c(NS(C)(=O)=O)c1C | -2.3 | -6 | 3 | 5% | ·

11 structures from above, arranged by number of heavy atoms, low to high.
SMILES | RecA intein inh | Mtb bLac sens | Arbovirus anti | Mtb H37Rv | YopH inh | others
O=C(O)c1c(-n2cccc2)sc2c1CCCC2 | -1.0 | 11 | 17 | 7% | ·
CSc1ccccc1NC(=O)Cn1ccsc1=N | -0.5 | -2 | 8 | -6% | ·
O=C(Cc1c[nH]c2ccccc12)NCc1cccs1 | 2.1 | 3 | -9 | 5% | -6
Cc1c(Cl)cccc1NC(=O)C1COc2ccccc2O1 (stereo unspecified) | 9.6 | -2 | · | · | ·
C=CCSC1=C(C#N)C(c2cc(Br)c(O)c(OC)c2)CC(=O)N1 (stereo unspecified) | 0.5 | 4 | -5 | 4% | -17
Cc1ccc(C2Nc3ccccc3C(=O)N2Cc2ccco2)cc1 (stereo unspecified) | 0.6 | -2 | -18 | 11% | -9
CCOC(=O)C1=C(Cc2ccc(Cl)cc2)C(=O)c2ccccc2C1=O | 27 | 41 | -30 | 0% | 6
Cc1cc(C(=O)N/N=C2\CC(=O)CC(C)(C)C2)c(C)n1-c1ccccc1 | · | -5 | 10 | 9% | -3
COc1ccc(CCNC(=O)c2c(C)nn(-c3ccccc3)c2Cl)cc1OC | -1.8 | -2 | · | · | ·
CCOc1cc(C(=O)O/N=C(\N)c2ccc([N+](=O)[O-])cc2)cc(OCC)c1OCC | 1.4 | 7 | -12 | -1% | -15
Cc1cc(C)cc(N2CCCn3c2nc2c3c(=O)n(CC(=O)OCc3ccccc3)c(=O)n2C)c1 | 0.4 | 4 | 9 | 5% | -41

Other compounds.
SMILES | RecA intein inh | Mtb bLac sens | Arbovirus anti | Mtb H37Rv | YopH inh | others
CCC(=O)Nc1ccc(C(=O)N/N=C/c2cccnc2)cc1 | -1.6 | -12 | 12 | 11% | -1
Cc1ccc(Sc2c([N+](=O)[O-])c(C)nn2C)cc1 | 1.5 | -1 | · | -2% | ·
O=C(CSc1nc(-c2ccccc2)nc2ccc(F)cc12)Nc1cccc(C(=O)O)c1 | 2.4 | -4 | · | -8% | ·
Cc1cc(C)nc(N2CCC(C(=O)NCc3ccccc3F)CC2)n1 | -1.5 | -2 | -5 | -8% | ·
COc1ccc(-n2nnnc2SCC(=O)Nc2ccccc2N2CCOCC2)cc1OC | -0.7 | 3 | 1 | · | ·
Cc1cc(C)c[n+](CC(=O)c2c(C)cc(C)c([N+](=O)[O-])c2C)c1 | 0.7 | -1 | · | · | ·
CCOc1cc(/C=N/N=C/c2ccc(O)c(OCC)c2)ccc1O | -0.8 | 3 | · | · | ·
O=C(NCCN1Cc2ccccc2C1=O)c1cccs1 | -3.9 | -2 | 1 | -4% | -16
COC(=O)C1(c2ccccc2)NC(c2ccc(O)cc2)C2C(=O)N(c3ccc4c(c3)OCO4)C(=O)C21 (stereo unspecified) | 1.3 | -6 | · | -3% | ·
O=C(CCN1C(=O)c2cccnc2C1=O)NC1CCCCCC1 | -1.7 | -3 | 15 | 2% | -8
O=C(Nc1ccccc1N1CCCC1)c1ccc([N+](=O)[O-])cc1Cl | -0.3 | 38 | -2 | 1% | ·
O=S(=O)(NN1CCOCC1)c1ccc(Br)cc1 | -0.5 | -10 | · | · | ·
O=C(NCCc1ccccc1)c1cccc2c1C(=O)N(C1CCCCC1)C2 | 2.0 | 1 | · | · | ·
CC1(C)C(=O)Nc2ccccc2N1C(=O)COC(=O)c1cc(S(=O)(=O)N2CCOCC2)ccc1F | -1.1 | -3 | 0 | -3% | ·
Cn1nnc2cc(NC(=O)NCc3ccc4c(c3)OCO4)ccc21 | -0.5 | -4 | 3 | -1% | 41
O=C(COC(=O)c1cc(=O)c2ccccc2o1)Nc1ccc2ccccc2c1 | -0.8 | -7 | 5 | 23% | 0
COC(=O)c1ccc2c(=O)n(CCCCCC(=O)O)c(=O)[nH]c2c1 | 1.3 | -4 | 7 | -4% | -31
CC(C)C(NS(=O)(=O)c1ccc2c(c1)OCCO2)C(=O)NCCc1ccccn1 (stereo unspecified) | -0.3 | -2 | 11 | -7% | -48
CC1=CCC2C(=O)N(CCc3c[nH]c4ccccc34)C(=O)C2C1 (stereo unspecified) | · | 5 | -7 | -5% | -7
O=C(CN1CCN(c2ccccc2)CC1)Nc1ccccc1Cl | 0.4 | 1 | 8 | 10% | ·
O=C(CC1Sc2ncnn2C1=O)Nc1ccc(Cl)cc1 (stereo unspecified) | 7.5 | -2 | 5 | -6% | ·
Cc1cccc2c3nc4ccccc4nc3n(CCCN3C(=O)c4ccccc4C3=O)c12 | -3.5 | · | -3 | · | -14

Screening results from PubChem BioAssay.

Not all compounds are listed, so the mix of outcomes need not match the whole.
